Screens as filed in PubChem.
NPYLR7 agonist – agonists of mosquito NPYLR7 receptor, primary screen, cell-based, Aedes aegypti, calcium fluorescence, mosquito biting behavior; Aedes aegypti neuropeptide Y-like receptor 7 (NPYLR7); HEK293T NPYLR7/Galpha15, GCaMP6s calcium fluorescence; activation, % at 10 µM; 0.15% of 270,000 active; AID 1259423, 2018; in the data active = activation above about 40%;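 note: 0% = vehicle and 100% = reference agonist at the receptor; some compounds past the cut are filed as inactive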
NPYLR7 agonist max-min – second read-out of NPYLR7 agonist, no call of its own (marks repeat the call); activation, %; measured here: Max-Min RFU normalised activation; some inactives read as strong as hits;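 span of the calcium signal over five minutes; 0% = vehicle and 100% = native peptide agonist; compound fluorescence can raise it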
* hit, by the source's call; & = joins results of further samples. Not all compounds are listed (hit frequency here may not be typical).

SMILES	NPYLR7 agonist	NPYLR7 agonist max-min
CCOc1ccccc1N1CC(c2nc3ccccc3n2CC(C)C)CC1=O (stereo not drawn)	2	2
COc1ccc(CCNC(=O)CN2CN(c3ccccc3)C3(CCN(C(=O)C(c4ccccc4)c4ccccc4)CC3)C2=O)cc1OC	16	20
O=C(Nc1cc(Cl)ccc1F)C1COc2ccccc2O1 (stereo not drawn)	-8	-7
Cc1ccc(OC(C)(C)C(=O)NCC2(N)CCCCC2)c2c1CCC2	9	3
Cc1cc(C)c(S(=O)(=O)N(C)c2ccccc2)cc1C(=O)O	-3	-5
CSc1ncccc1C(=O)Nc1ccc(C23CC4CC(CC(C4)C2)C3)cc1	0	1
Clc1ccc2nnc(Nc3ccccc3Cl)n2n1	0	5
CC(=O)NCc1ccc(-c2csc(NC(=O)Cn3cnnn3)n2)s1	1	5
COC(=O)CN(C)Cc1cc2ccc(OC)cc2[nH]c1=O	13	-5
Nc1cc(=O)[nH]c(SCc2cc(=O)oc3ccc4ccccc4c23)n1	7	2
Cc1cccc(Cc2nnc(CCC(=O)N(C)C(C)c3ccc4c(c3)OCCO4)o2)c1 (stereo not drawn)	1	-1
CN1CCN(/N=C2/C=C(c3ccccc3)C(O)(c3ccccc3)C2)CC1 (stereo not drawn)	-3	-3
COCCN1Cc2sccc2N(CC(O)COc2ccccc2)CCC1=O (stereo not drawn)	8	12
CN(Cc1ccccc1)C1CCCN(C(=O)CCc2c[nH]c3ccccc23)C1 (stereo not drawn)	0	-1
CCOc1nc(-c2cccc(F)c2)n(-c2ccc(NC(=O)c3ccc(Cl)cc3)cc2)n1	22	20
CC(=O)c1ccc(-c2ccc(/C=C3\SC(=Nc4ccccc4Cl)NC3=O)o2)cc1	0	-7
CN(C(=O)NCc1ccccc1)C(c1ccccc1)c1ccc(F)cc1 (stereo not drawn)	-2	-2
CC(C)c1nnc(SCC(O)c2ccc(F)cc2)n1C1CC1 (stereo not drawn)	2	2
CCOc1ncccc1CN1CCC(C(=O)NN(C)c2ccccc2)CC1	-14	-28
N#Cc1ccnc(SCC(=O)NCc2cccnc2)c1	12	10
NCC1CN(c2ccccc2)C(=O)O1 (stereo not drawn)	-5	-7
COc1ccc(CN2CCNC(=O)C2CC(=O)NCc2ccoc2)c(F)c1 (stereo not drawn)	2	-2
CN1C(=O)NC(c2cccc(OCc3ccccc3)c2)C2=C1CN(Cc1ccccn1)C2=O (stereo not drawn)	10	13
Cc1ccc(C2CC(c3cccc(F)c3)=NN2C(=O)CN2CCC(Cc3ccccc3)CC2)cc1 (stereo not drawn)	1	4
Cc1cc(C)cc(NC(=O)C(Cc2ccccc2)N2CC3=C(C2=O)C(c2cccc(Oc4ccccc4)c2)NC(=O)N3C)c1 (stereo not drawn)	-3	1
O=C(c1cccs1)N(Cc1nccn1Cc1cccc(C(F)(F)F)c1)C1CCCCC1	18	23
Cc1nn(C2CCS(=O)(=O)C2)c2nc(-c3ccccc3)cc(C(=O)O)c12 (stereo not drawn)	-7	-9
Cc1ccc(C2=NN(C(=O)CN3CCN(c4ccccc4F)CC3)C(c3ccc(Cl)cc3)C2)cc1C (stereo not drawn)	-2	6
O=C(NNC(=O)C1(c2cccc(Cl)c2)CCC1)c1cccnc1	0	-1
Cc1ccc(CN(Cc2ccc(F)cc2)C(=O)CN(CC2CCCO2)C(=O)c2ccco2)s1 (stereo not drawn)	0	5
CC1C(=O)N(c2cccc(F)c2)CCN1C(=O)Cc1ccccc1 (stereo not drawn)	-2	0
COc1ccc(NC(=O)c2c(C)c(C)c(C)n2Cc2cccc(F)c2)cc1	32	41
Cc1ccc(-n2nnnc2SCC(=O)NCc2ccco2)c(C)c1	8	10
CN(CC(=O)OC(C)(C)C)C(=O)c1cc(-c2ccco2)[nH]n1	5	1
COC(=O)Cn1c(=NC(=O)COc2ccccc2)sc2cc3c(cc21)OCCO3	1	-1
CN1CC2(CCN(C(=O)c3cc4c(s3)CCCCC4)C2)OC1=O (stereo not drawn)	5	3
Cc1ccc(-c2nc(C=Nc3ccc(C)c(Cl)c3)c(O)o2)cc1	-5	-11
Cn1nnc2c(=O)n(CC(=O)NCc3ccc4c(c3)OCO4)cnc21	1	14
COCCNC(=O)Cn1nc2c(c1NC(=O)c1cc3ccccc3o1)CSC2	-3	3
C/C(C=NNC(=O)c1cc(C)nc2ccccc12)=C/c1ccc(C(C)C)cc1	5	-1
O=C(CCc1ccccc1)N1CCC(c2nc(-c3ccccc3F)no2)CC1	-2	-4
O=C(CSc1nnc(NCCc2ccccc2)s1)N1CCCC1	0	0
CCC(=O)N1CCN(C(=O)c2cn(CCOC)cc3c(=O)n(-c4ccccc4)nc2-3)CC1	-1	-3
O=C1C(C(c2ccccc2)N2CCc3ccccc3C2)Sc2ncnn21 (stereo not drawn)	5	3
O=C(OCc1cc(-c2ccc3c(c2)OCCO3)on1)c1cnccn1	-1	-4
O=C(c1cccc(F)c1)N(Cc1c(-c2ccccc2)noc1N1CCCC1)CC1CCCO1 (stereo not drawn)	-5	3
CC1=C(C(=O)N2CCC(CCC(=O)NCc3ccc(F)cc3)CC2)OCCO1	20	6
Cc1ccc2oc(N3CCSC4CCCCC43)nc2c1 (stereo not drawn)	2	-1
COc1ccc(C(C#N)N2N=C(C)CC2(C)C)cc1OC (stereo not drawn)	3	1
O=C1CCC(C(=O)N2CCC(Cn3ccnc3)CC2)CN1CCCN1CCOCC1 (stereo not drawn)	1	-1
O=C(NCCNC(=O)[C@H]1CCCN1C(=O)COc1ccccc1)c1ccc(F)cc1	1	7
O=C(C=Cc1ccco1)OCn1nnc2ccccc2c1=O	-2	-1
CN(Cc1nc(-c2ccc3c(c2)OCO3)no1)CC1COc2ccccc2O1 (stereo not drawn)	6&1	1&-6
COc1ccccc1NC(=O)CCCN1C(=O)c2cccc3cccc(c23)C1=O	17	3
COc1ccc(S(=O)(=O)N2CCC(Nc3ccccc3)C2)cc1 (stereo not drawn)	2	-3
CCOC(=O)c1cc(-c2cccc(NC(=O)c3ccc(OC)c(F)c3)c2)n(-c2ccccc2F)n1	26	7
CN1C(=O)N(CCc2ccccc2)C(=O)C12CCN(Cc1ccc(-c3ccccc3Cl)o1)CC2	10	-4
COc1cccc(NC(=O)CSc2nc3[nH]ncc3c(=O)[nH]2)c1	1	0
Cc1n[nH]c(C)c1CCN(C)C(=O)c1cn[nH]n1	-1	-8
COc1cc2c(cc1OC)C(CNC(=O)c1cccc(F)c1)N(C(=O)Nc1ccc(C)cc1)CC2 (stereo not drawn)	7	8
Other results.
SMILES	NPYLR7 agonist	NPYLR7 agonist max-min
Cc1ccc(CN2CCNC(=O)C2CC(=O)N(C)Cc2ccsc2)o1 (stereo not drawn)	4	-1
COc1ccccc1CNC(=O)N(C)Cc1ccccc1	0	-2
CC(c1ccccc1)C(NC(=O)OC(C)(C)C)C(=O)O (stereo not drawn)	1	-2
COC(=O)CCCCCCC(=O)N1CCN(Cc2cc(=O)c(OCc3ccccc3Cl)co2)CC1	0	-6
CCNc1nnc(SCc2nccn2C(F)F)s1	3	-3
CCNS(=O)(=O)c1ccc(C)c(C(=O)N(CCC#N)Cc2ccco2)c1	3	2
Cc1nc2cc(NC(=O)C3(C)CCc4c(C)c(O)c(C)c(C)c4O3)ccc2s1 (stereo not drawn)	1	-2
Cc1ccc(-c2ccc(=O)n(Cc3cccc(F)c3)n2)cc1	6	3
CCN(CC(=O)N1CCc2sccc2C1c1ccc(Cl)cc1Cl)C(=O)CSc1ccccc1 (stereo not drawn)	-2	-5
O=C(CSc1nn2c(-c3ccccc3Br)nnc2s1)Nc1cccc(Cl)c1	1	0
COC(=O)c1ccc(C)c(OC(C)C(=O)NC2CCS(=O)(=O)C2)c1 (stereo not drawn)	4	3
Nc1nn(C(=O)CC2CCCO2)cc1-c1cccc(Cl)c1 (stereo not drawn)	-24	-24
Cn1c(=O)n(Cc2ccccc2F)c(=O)c2c1nc1n2CCCN1Cc1ccccc1	0	1
CCCn1c(=O)c(C(=O)NCc2ccccn2)nn(-c2cccc(C)c2)c1=O	-5	-5
CC(Sc1ccccn1)C(=O)N1CCOC2CCCCC21 (stereo not drawn)	2	2
CCc1nc2ccc(C(=O)N(CC)CCN(C)C)cn2c1N(C)Cc1ccncc1	12	-3
CCCCc1ccc(NC(=O)c2cc(=O)c(OC)cn2C)cc1	1	-2
Cc1ccccc1C(=O)N1CCC(C(NC(=O)c2ccc3c(c2)OCO3)C(=O)N2CCOCC2)CC1 (stereo not drawn)	-5	-4
CN(C)C(=O)CSc1nnc(-c2ccc(Cl)cc2)n1C	3	-2
O=C(O)c1nn(Cc2ccccn2)c2c1CN(C(=O)CN1CCCCC1)CC2	4	3
Cc1ccccc1Cn1c(=O)c2c(nc3n(CCN(C)C)c(C)cn23)n(C)c1=O	2	10
CCC1(O)CCCN(Cc2nc(-c3cc(OC)c4c(c3)OCO4)oc2C)C1 (stereo not drawn)	-1	-2
CCN(Cc1nccn1C)c1ccc(-c2nc(C(C)C)no2)cn1	-1	-3
CON(C)C(=O)c1cc(-c2ccccn2)n[nH]1	13	9
Cc1c(C=C(C#N)S(=O)(=O)c2cc(Br)ccc2Br)cc(C#N)n1C	1	6
O=c1oc(-c2ccc(F)cc2)nn1CN1CCCC2CCCCC21 (stereo not drawn)	9	12
Cc1nc2sccn2c(=O)c1NC(=O)c1cccc(C(F)(F)F)c1	15	7
CCOC(=O)N1CCN(C(=O)CSc2nc(Cl)cc(N3CCN(C(=O)c4cccc(OC)c4)C(C)C3)n2)CC1 (stereo not drawn)	-5	0
OC[C@@H]1O[C@H](CNCc2cccc(Cl)c2)[C@H](N2CCc3ccccc3C2)[C@@H]1O	22	28
Oc1ccccc1-c1nc2ccccc2o1	-2	-6
CC(=O)Nc1ccc(CNCC2CSCCS2)cc1 (stereo not drawn)	-3	40
O=C(NCCCOCc1ccccc1)c1cc(Cl)c[nH]1	3	1
CC1(C)CC(=O)C2C(=Nc3ccccc3N(C(=S)Nc3ccccc3)C2c2cccs2)C1 (stereo not drawn)	-9	-14
COC(=O)CCS(=O)(=O)c1ccc(Cc2ccc(S(=O)(=O)CCC(=O)OC)cc2)cc1	4	8
NC(CSCSCC(N)C(=O)O)C(=O)O (stereo not drawn)	1	-3
CC1=NN(CC(=O)NC2CC(C)(C)Oc3ccc(C)cc32)CC1 (stereo not drawn)	4	1
Cc1ccc(CN(C)CCC(N)=O)c(C)c1	-1	-3
O=C(Nc1ccccc1)NC1CCN(C(=O)c2cc(Cl)ccc2O)CC1	-1	-3
COCCN(Cc1ccc(OC)cc1)c1c(C)nc2ccc(C(=O)N3CCCCC3)cn12	-6	-13
Cc1ccc(F)c(C(=O)N2CCN(C(c3ccccc3)c3ccc(F)cc3)CC2)c1F (stereo not drawn)	3	-2
COc1ccc(S(=O)(=O)NCCc2ccc(F)cc2)cc1N1CCN(C(=O)CCSC)CC1	2	-3
CC(C)Cn1c(CN2CC(C)CC(C)C2)nc2c1c(=O)n(C)c(=O)n2C (stereo not drawn)	-4	-4
CC(C)(C)OC(=O)N1CCCC(C(=O)NC(CN2CCOCC2)c2ccccc2)C1 (stereo not drawn)	10	5
CCn1c(CC2CCN(C(=O)c3cccc(-n4cccn4)c3)CC2)nn(C)c1=O	3	0
Cc1ncsc1CCC(=O)N(C)Cc1cc(-c2ccccc2)on1	8	2
C=CCNC(=O)c1cncn1-c1ccc(-c2ccc(CCCC)cc2)cc1	4	-1
O=C(c1ccccc1Br)N1CCc2nc(Cc3cccc(F)c3)nc(N3CCOCC3)c2C1	-12	-14
Cc1cc(C(F)(F)F)n2ncc(C(=O)N3CC[C@@H]4CC[C@H](C3)N4C)c2n1	7	5
COCCN(CC(=O)N(CCc1ccc(OC)c(OC)c1)Cc1sccc1C)S(=O)(=O)c1c(C)cc(C)cc1C	-2	5
O=C1NCCCCC1SCc1noc(-c2ccc(Cl)cc2)n1 (stereo not drawn)	2	1
Cc1nc2n(n1)C(=O)C(C(c1ccc([N+](=O)[O-])cc1)N1CCOCC1)S2 (stereo not drawn)	5	4
CC1(C)CN(C(=O)/C=C/c2ccc(Cl)c(C(F)(F)F)c2)CCO1	12	10
COc1ccc(/C=N\n2c(N)c(C(=O)NCC(C)C)c3nc4ccccc4nc32)cc1OC	6	-5
